# Sa growth 42C – blocks Staphylococcus aureus growth | S. aureus RN4220 growth, OD600, 20 h, 42 °C; hits give low values | relative growth, % (no concentration beside the values) | 0.53% of 170,000 active | AID 720641;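 active = growth at 42 °C up to 50% and 20 or more points under that at 30 °C, or under 10% at both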;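 note: 300 nL library stock went into each well; scaled to the means of positive and negative controls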
# GIV Gai3 FP – inhibitors of GIV GBA-motif binding to rat Galpha-i3; Galpha-i3/FITC-GIV peptide fluorescence polarization, 90 min; hits give low values; scaled: aluminum fluoride 0%, vehicle 100%; percent of control (FP), % (concentration not given with the values); 0.42% of 210,000 active; AID 1224905;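 active = replicate mean at 85% of control or lower, very high polarization wells dropped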;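 note: wells of about 15 µL received 100 nL stock; the first replicate is given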
# Target sequence (P08753 whole entry, looked up): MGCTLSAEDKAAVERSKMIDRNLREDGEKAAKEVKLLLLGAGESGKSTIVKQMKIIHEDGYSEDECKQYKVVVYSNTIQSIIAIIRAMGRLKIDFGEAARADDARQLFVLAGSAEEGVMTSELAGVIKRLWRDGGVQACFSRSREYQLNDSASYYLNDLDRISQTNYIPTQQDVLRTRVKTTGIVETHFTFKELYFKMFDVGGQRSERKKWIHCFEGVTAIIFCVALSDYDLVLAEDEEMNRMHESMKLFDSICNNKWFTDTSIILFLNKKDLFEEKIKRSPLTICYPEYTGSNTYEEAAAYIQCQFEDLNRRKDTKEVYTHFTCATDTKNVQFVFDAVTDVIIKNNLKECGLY
# HCMV UL50-53 inh – disrupts HCMV UL50-UL53 complex binding; 0.15% of 190,000 active; inhibition, % (test concentration not listed); HTRF UL50-UL53 interaction, normalized percent inhibition;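 active = both replicates at 50% or more, plus weaker picks with an unusually low signal ratio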;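 note: stock transfer was 100 nL into about 20 µL; 0% = negative control wells and 100% = wells with untagged competitor protein; inactives centre near -12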
# Sa growth 42C second temp – second read-out of Sa growth 42C, no call of its own (marks repeat the call); relative growth, %; measured here: growth at 30 °C;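 optical density after 20 h as mean of two plates; 100% = untreated growth and lower means inhibition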
# * = called active by the depositor; · = no result given.
# Short forms – A = Sa growth 42C; B = Sa growth 42C second temp; C = GIV Gai3 FP; D = HCMV UL50-53 inh
> COc1cc(CN(C(=O)COc2ccc(C)cc2)c2ccccn2)cc(OC)c1OC
  A = 98 | B = 83 | C = 103 | D = -25
> CN(C)S(=O)(=O)c1ccc2c(c1)N(CC(=O)NCc1ccc(F)cc1)C(=O)CS2
  A = 108 | B = 95 | C = 107 | D = ·
> Cc1cc(Cc2ccc(S(=O)(=O)N3CCN(C)CC3)cc2)c(=O)[nH]n1
  A = · | B = · | C = 101 | D = -25
> NC(=O)Cn1cnc2ccccc21
  A = 71 | B = 80 | C = 100 | D = -21
> Cc1ccc2oc(-c3nnc(C(=O)NC4CCCC4)o3)c(C)c2c1
  A = · | B = · | C = 104 | D = 0
> CCCOc1ccc(C2C3=C(CC(C)(C)CC3=O)Nc3ccccc3N2C(=O)C(F)(F)F)cc1OC (stereo unspecified)
  A = · | B = · | C = 104 | D = -20
> O=C(Cn1nnc(-c2ccccc2Br)n1)N(Cc1ccccc1)C1CCS(=O)(=O)C1 (stereo unspecified)
  A = 101 | B = 84 | C = · | D = -13
> O=C(Nc1ccc(Br)cc1)c1cnc2ccccn2c1=O
  A = 92 | B = 93 | C = 109 | D = 14
> CC(=O)N1CCc2cc(N=NC3=C(O)CCCC3=O)ccc21
  A = 108 | B = 115 | C = · | D = 0
> COc1cc(NC(=O)Cn2ncc3c(=O)oc4ccccc4c32)cc(OC)c1OC
  A = 101 | B = 87 | C = 104 | D = -15
> C=CCn1cc(C(=O)NCCN2CCCCCC2)c(=O)c2cc(S(=O)(=O)N(CC)CC)ccc21
  A = 111 | B = 99 | C = 106 | D = ·
> Cc1nnc2c(N3CCC(Cc4ccccc4)CC3)nc3ccccc3n12
  A = · | B = · | C = 106 | D = 3
> Cc1ccc(NS(=O)(=O)c2ccc3[nH]c4c(c3c2)CCCCC4)nc1
  A = · | B = · | C = 105 | D = -9
> COC(=O)c1c(NC(=O)COc2ccccc2Cl)sc2c1CCC(C(C)(C)C)C2 (stereo unspecified)
  A = 99 | B = 94 | C = 103 | D = 14
> Cc1cc(=O)n(CC(C)O)c(O)c1C#N (stereo unspecified)
  A = 89 | B = 86 | C = · | D = -7
> CCOc1ccc(NC(=O)Cn2nc3ccc(S(=O)(=O)C(C)(C)C)nn3c2=O)cc1
  A = · | B = · | C = 109 | D = -72
> O=C(Sc1ccc(Cl)cc1)c1cnn(-c2ccccc2)c1C(F)(F)F
  A = 75 | B = 56 | C = 101 | D = -9
> CC(=O)NC(C(=O)N1CCN(S(=O)(=O)c2cccs2)CC1)C(C)C (stereo unspecified)
  A = 75 | B = 87 | C = · | D = -15
> CCC(C)(C)NC(=O)CCn1ccc(C)n1
  A = 104 | B = 95 | C = 98 | D = -7
> Cc1nc(-c2ccc(N3CCN(C(=O)Nc4ccc(C)c(C)c4)CC3)cc2)no1
  A = · | B = · | C = 107 | D = -25
> Cc1c(C2=CCN(S(=O)(=O)c3ccc(Cl)cc3)CC2)c2ccccc2n1Cc1ccccc1
  A = · | B = · | C = 99 | D = -24
> Cc1cc2c(cc1NC(=O)c1sc3ccccc3c1Cl)n(C)c(=O)c(=O)n2C
  A = · | B = · | C = 105 | D = -25
> CCOc1ccc(NC(=O)CN2C(=O)c3ccccc3Sc3ccc(C(=O)OC)cc32)cc1
  A = 83 | B = 83 | C = 104 | D = ·
> Nc1nc(SCC(=O)NCCc2ccccc2)n[nH]1
  A = 75 | B = 90 | C = · | D = -12
> NC(=S)N/N=C/c1ccccc1OCC(=O)O
  A = 95 | B = 82 | C = 101 | D = -37
> O=C(O)CCCC(=O)N1CCc2c([nH]c3ccccc23)C1C(F)(F)F (stereo unspecified)
  A = 122 | B = 81 | C = 110 | D = 2
> COc1ccccc1CNC(=O)C(=O)NCC(c1cccs1)S(=O)(=O)c1ccc(F)cc1 (stereo unspecified)
  A = 135 | B = 100 | C = 100 | D = ·
> NC(=O)N1C(=O)C=CC1=O
  A = 37 | B = 42 | C = 98 | D = -9
> COc1ccc(Cl)cc1NC(=O)c1cc(S(=O)(=O)NC2CCCCCC2)ccc1F
  A = 112 | B = 96 | C = 100 | D = ·
> CCc1nc(SCC(=O)NCc2ccccc2)c2c(=O)n(C)c(=O)n(C)c2n1
  A = 95 | B = 97 | C = 105 | D = 7
> N#CCCN(Cc1ccco1)S(=O)(=O)c1ccccc1
  A = 120 | B = 96 | C = 106 | D = -17
> Cc1nnc(-c2cc3ccccc3n2CC(=O)N2CCCc3ccccc32)o1
  A = · | B = · | C = 100 | D = -7
> Cn1c(=O)c2c(nc(Sc3nnc(NC(=O)c4ccc(Br)cc4)s3)n2C)n(C)c1=O
  A = · | B = · | C = 96 | D = -9
> Cc1oc(-c2ccccc2Cl)nc1CS(=O)CC(=O)N1CCN(c2cccc(C(F)(F)F)c2)CC1 (stereo unspecified)
  A = 107 | B = 88 | C = 101 | D = ·
> O=C(CSc1nc2ccccc2o1)NN=C1CCCC1
  A = 110 | B = 95 | C = 105 | D = -12
> COc1cccc(NC(=O)CCSc2nnc3scc(-c4ccccc4)n23)c1
  A = 102 | B = 80 | C = 98 | D = -18
> Cc1noc(C)c1CN(C(=S)Nc1cccc(Cl)c1)c1ccccc1
  A = 41 | B = 3 | C = · | D = -5
> CCS(=O)(=O)c1ccccc1C(=O)N1CCN(c2nc3ccccc3s2)CC1
  A = 88 | B = 89 | C = 95 | D = ·
> Cc1ccc(C(=O)N2CCN(c3ncnc4c3c(-c3ccccc3)cn4-c3ccccc3)CC2)cc1
  A = · | B = · | C = 109 | D = -7
> CCc1ccc(N2C(=O)CS(=O)(=O)C23C(=O)N(Cc2ccccc2F)c2ccccc23)cc1 (stereo unspecified)
  A = 94 | B = 89 | C = 103 | D = ·
> CC1=C(C(=O)Nc2ccccc2)C(c2ccccc2Cl)n2ncc(C(=O)Nc3cccc(C)c3)c2N1 (stereo unspecified)
  A = 85 | B = 95 | C = 96 | D = ·
> Oc1ccccc1N=Cc1ccncc1
  A = 94 | B = 27 | C = · | D = -33
> CCCNC(=O)c1cc2sc(Cl)cc2n1CC
  A = 92 | B = 79 | C = 103 | D = ·
> COc1cccc(C(=O)Nc2ccc(-c3nc(C)no3)cc2)c1
  A = · | B = · | C = 107 | D = 7
> Cc1ccc(CNC(=O)c2c(O)nc3ccccn3c2=O)cc1
  A = 80 | B = 82 | C = 104 | D = 2
> COC(=O)c1sccc1NC(=O)c1cc(S(=O)(=O)N(C)C)oc1C
  A = 96 | B = 91 | C = 103 | D = -20
> C/C=C/C=N/N=C/C1=C(N2CCOCC2)C(=C\c2ccccc2)/CC1
  A = 114 | B = 103 | C = · | D = -11
> CCCNC(=O)C1CCC(Cn2c(=O)c3sccc3n(CC(=O)N(CC)CC)c2=O)CC1 (stereo unspecified)
  A = 106 | B = 96 | C = 102 | D = ·
> CC(=O)Nc1ccc(S(=O)(=O)NCc2nc(-c3ccccc3)no2)cc1
  A = 91 | B = 79 | C = 104 | D = -21
> N#CC(C#N)=c1ccc(=C(C#N)c2ccc(N3CCCC3)cc2)cc1
  A = 89 | B = 81 | C = 111 | D = ·
> CC1CCC2(CC1)NCCN=C2NCc1ccc(Cl)cc1 (stereo unspecified)
  A = · | B = · | C = 94 | D = 4
> CCCc1ccc(-c2cc(N)n(-c3ccccc3)n2)cc1
  A = 116 | B = 91 | C = · | D = -16
> CCOC(=O)c1cc2c(=O)n3ccccc3nc2n(CC2CCCO2)c1=NC(=O)c1ccc(C)cc1 (stereo unspecified)
  A = 107 | B = 104 | C = 107 | D = -46
> CCCCNc1nc(=S)nc(N(C)C)[nH]1
  A = 107 | B = 104 | C = 109 | D = -32
> COc1ccc(NC(=O)Cc2noc3ccccc23)cc1Cl
  A = · | B = · | C = 107 | D = 0
> CC(N=C1SCCN1C(=O)c1ccc(NC(N)=O)cc1)c1ccccc1 (stereo unspecified)
  A = 91 | B = 92 | C = · | D = -3
> CCc1ccc(CNC(=O)CCc2c(C)nn(-c3ccc(N4CCCC4)nn3)c2C)cc1
  A = 91 | B = 85 | C = 93 | D = ·
> CC(=O)OC(COc1ccccc1)Cn1cnc2cc(C)c(C)cc21 (stereo unspecified)
  A = 109 | B = 93 | C = 100 | D = 18
> CC1CC(C)(C)OC(C[N+]2(C)CCCCC2)O1 (stereo unspecified)
  A = 69 | B = 88 | C = 104 | D = ·
> N=C1S/C(=C/c2ccccc2)C(=O)N1c1nonc1N
  A = 91 | B = 69 | C = · | D = -16

# Other results follow:
# Short forms – A = Sa growth 42C; B = Sa growth 42C second temp; C = GIV Gai3 FP; D = HCMV UL50-53 inh
> COc1ccc2c(c1)NC1(CCN(S(=O)(=O)c3ccc(OC)c(Cl)c3)CC1)c1cccn1-2
  A = · | B = · | C = 106 | D = 2
> COc1ccccc1Nc1nn2c(=O)c3ccc(C(=O)NC4CCC(C)CC4)cc3nc2s1 (stereo unspecified)
  A = 108 | B = 96 | C = 107 | D = ·
> CCOCCOC(=O)C1=C(C)NC2=C(C(=O)CC(c3ccc(Cl)cc3)C2)C1c1cccc(OC)c1 (stereo unspecified)
  A = · | B = · | C = 104 | D = -19
> CC(=O)N1C/C(=N/NC(N)=S)c2cc(Br)ccc21
  A = 93 | B = 93 | C = 108 | D = -15
> N#Cc1c(N)n(Cc2ccccc2)c2nc3ccccc3nc12
  A = 111 | B = 76 | C = · | D = -20
> COc1ccc(C2CC(=O)Oc3c2c(=O)n(C)c2ccccc32)c(OC)c1OC (stereo unspecified)
  A = 99 | B = 85 | C = 101 | D = -3
> O=C(O)c1cnc(N2CCC(Cc3ccccc3)CC2)c(NS(=O)(=O)c2ccc(F)cc2)c1
  A = · | B = · | C = 102 | D = -32
> Cc1cccc(N(C)C(=O)c2cc3c(=O)oc4ccccc4c3s2)c1
  A = 103 | B = 90 | C = 102 | D = ·
> CCc1ccccc1NC(=O)Cn1c(=O)n(Cc2ccco2)c(=O)c2ccccc21
  A = 91 | B = 91 | C = 101 | D = -12
> CCC(=O)N(Cc1cc2ccccc2[nH]c1=O)C(C)C
  A = 92 | B = 90 | C = 100 | D = -26
> O=C(C1c2ccccc2Oc2ccccc21)N1CCCc2ccccc21
  A = 126 | B = 109 | C = · | D = -4
> Cc1ccc(OCC(=O)Nc2ccc3nc(SCC(=O)N4CCOCC4)sc3c2)cc1C
  A = 107 | B = 89 | C = 100 | D = -12
> O=C(CCn1cnc2onc(-c3ccc(F)cc3)c2c1=O)Nc1cccc(Cl)c1
  A = 99 | B = 104 | C = 95 | D = 6
> CC1(Cc2nc3ccccc3[nH]2)OCCO1
  A = 88 | B = 90 | C = · | D = 2
> COc1ccc(C2CC(=O)C3=C(C2)Nc2ccccc2N(C(C)=O)C3c2ccco2)cc1OC (stereo unspecified)
  A = 78 | B = 77 | C = 106 | D = -10
> CNS(=O)(=O)c1cn(CC(=O)Nc2ccc(Cl)cc2)cc1S(=O)(=O)NC
  A = · | B = · | C = 107 | D = -4
> Cc1nn(CCC#N)c(NC(=O)c2ccc(Cl)cc2)c1P(=O)(Nc1ccc(F)cc1)N1CCOCC1 (stereo unspecified)
  A = 145 | B = 99 | C = · | D = -2
> COC(=O)c1ccsc1NC(=O)C1=COCCO1
  A = 80 | B = 78 | C = 103 | D = -28
> COc1cccc(NC(=O)CN(C)C(=O)Cc2ccccc2F)c1
  A = 90 | B = 94 | C = · | D = 1
> C=CCNCc1cc2cc(C)cc(C)c2[nH]c1=O
  A = 107 | B = 81 | C = 101 | D = -30
> Cn1c(=O)[nH]c(=O)c2c1nc1n2CCCC1c1ccccc1 (stereo unspecified)
  A = 111 | B = 88 | C = · | D = 4

# 12 neighbouring records already listed, for reference:
# Short forms – A = Sa growth 42C; B = Sa growth 42C second temp; C = GIV Gai3 FP; D = HCMV UL50-53 inh
> CCC(=O)N(Cc1cc2ccccc2[nH]c1=O)C(C)C
  A = 92 | B = 90 | C = 100 | D = -26
> O=C(C1c2ccccc2Oc2ccccc21)N1CCCc2ccccc21
  A = 126 | B = 109 | C = · | D = -4
> Cc1ccc(OCC(=O)Nc2ccc3nc(SCC(=O)N4CCOCC4)sc3c2)cc1C
  A = 107 | B = 89 | C = 100 | D = -12
> O=C(CCn1cnc2onc(-c3ccc(F)cc3)c2c1=O)Nc1cccc(Cl)c1
  A = 99 | B = 104 | C = 95 | D = 6
> CC1(Cc2nc3ccccc3[nH]2)OCCO1
  A = 88 | B = 90 | C = · | D = 2
> COc1ccc(C2CC(=O)C3=C(C2)Nc2ccccc2N(C(C)=O)C3c2ccco2)cc1OC (stereo unspecified)
  A = 78 | B = 77 | C = 106 | D = -10
> CNS(=O)(=O)c1cn(CC(=O)Nc2ccc(Cl)cc2)cc1S(=O)(=O)NC
  A = · | B = · | C = 107 | D = -4
> Cc1nn(CCC#N)c(NC(=O)c2ccc(Cl)cc2)c1P(=O)(Nc1ccc(F)cc1)N1CCOCC1 (stereo unspecified)
  A = 145 | B = 99 | C = · | D = -2
> COC(=O)c1ccsc1NC(=O)C1=COCCO1
  A = 80 | B = 78 | C = 103 | D = -28
> COc1cccc(NC(=O)CN(C)C(=O)Cc2ccccc2F)c1
  A = 90 | B = 94 | C = · | D = 1
> C=CCNCc1cc2cc(C)cc(C)c2[nH]c1=O
  A = 107 | B = 81 | C = 101 | D = -30
> Cn1c(=O)[nH]c(=O)c2c1nc1n2CCCC1c1ccccc1 (stereo unspecified)
  A = 111 | B = 88 | C = · | D = 4
